HSD17B inhib: blocks hydroxysteroid 17-beta dehydrogenase activity | Q99714 | recombinant HSD17B10, NADH fluorescence kinetic; many of its hits are not listed in these tables | Potency, µM (series often up to 57.1 µM), for the others: at the highest dose activity change, negative = inhibition, actives largely listed as inhibitors | actives 7.6% (n = 75,000) | AID 893; active means well fitted inhibition curve with a large enough effect; inconclusive means small, poorly fitted or top-dose-only effect; inactive means no such curve, though single readings can be large or run the other way;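 further: the protocol describes HADH2 (HSD17B10) and not the HSD17B4 of the title; nearly all actives have a fitted effect of over 70% in size; most hits overshoot -100% by far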
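His-tagged E. coli-expressed HADH2 at 20 nM in 100 mM Tris-HCl pH 9.0 with 0.01 % Tween-20, preincubated 15 min with compound at room temperature. Reaction with 1 mM NAD+ and 90 uM beta-hydroxybutyryl coenzyme A; NADH fluorescence (360/450 nm) read kinetically over 4 min, last minus first point.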
* marks the source's active call; other numbers are inactive results; ? = inconclusive; [ ] = dose if it differs, or a comment. On the % scale 0 is the no-effect control and ±100 the full control effect; potency means the concentration at half of the fitted maximal effect.

SMILES	HSD17B inhib
CCCCCCn1c(SCC(C)C)nc2c1c(=O)[nH]c(=O)n2C	-1.0%
CCc1ccc2[nH]c(=O)c(CN(Cc3ccccc3OC)Cc3nnnn3Cc3ccco3)cc2c1	25.1µM*
NC(=O)c1ccc[n+]([C@@H]2OC(COP(=O)([O-])OP(=O)(O)OCC3OC(n4cnc5c(N)ncnc54)C(OP(=O)(O)O)C3O)C(O)C2O)c1 (stereo partly drawn)	-10.7%
Cc1cc(C)cc(NC(=O)CSc2nnc(Cn3c(=O)sc4ccccc43)n2C)c1	-0.2%
O=C(NCC1CCCO1)c1cccc(Br)c1 (stereo not drawn)	11.5%
CCc1ccc(C=NC23CN4CN(CN(C4)C2)C3)s1	2.0%
Nn1c(SCC(=O)N2CCCCC2)nnc1-c1ccncc1	-10.2%
COc1cccc([C@@H]2Oc3ccc(OC)cc3C(=O)[C@H]2O)c1	0.6%[11.4 µM]
Cc1ccc(-c2cnc(-c3ccncc3)o2)cc1	25.1µM*
COC(=O)c1ccccc1NC(=O)N1CCN(S(=O)(=O)c2ccc(Cl)cc2)CC1	31.6µM*
COc1ccc(CNc2nc3c(c(=O)n(Cc4ccc(F)cc4)c(=O)n3C)n2C)cc1	-1.6%
Cn1cnc2c1c(=O)n(Cc1ccc(F)cc1Cl)c(=O)n2C	-6.3%
COc1ccc(NC(=O)c2cc(-c3ccccc3OC)on2)cc1	47.0%[activator]
COc1cc(NC(=O)c2cccs2)ccc1NC(=O)c1ccco1	34.5%[activator]
CN(C)C(=O)NCc1ccc(S(N)(=O)=O)cc1	7.3%
CCc1ccc(NC(=O)CSc2nnc(-c3cnccn3)n2Cc2ccco2)cc1	-6.5%
Cc1ccc(-c2nn3c(-c4ccco4)nnc3c3ccccc23)cc1S(=O)(=O)N1CCOCC1	6.7%
O=C(c1scc2c1CCCC2)N1CCCCC1	2.1%
C=C1C(C2(C)C=CC(=O)C(C)(C)C2CC(=O)OC)CC[C@@]2(C)C(c3ccoc3)OC(=O)C3OC132 (stereo partly drawn)	5.1%
O=C(Cn1c(NCCO)nc2ccccc21)c1ccccc1	8.7%

Next part, starting with the last four of the part before.
SMILES	HSD17B inhib
Cc1ccc(-c2nn3c(-c4ccco4)nnc3c3ccccc23)cc1S(=O)(=O)N1CCOCC1	6.7%
O=C(c1scc2c1CCCC2)N1CCCCC1	2.1%
C=C1C(C2(C)C=CC(=O)C(C)(C)C2CC(=O)OC)CC[C@@]2(C)C(c3ccoc3)OC(=O)C3OC132 (stereo partly drawn)	5.1%
O=C(Cn1c(NCCO)nc2ccccc21)c1ccccc1	8.7%
c1cn(CCCNc2ncnc3nc[nH]c23)cn1	?
CSc1ccccc1NC(=O)c1ccncc1	-3.9%
CC(C)C(OC(=O)c1cccs1)C(=O)NCc1cccs1 (stereo not drawn)	-3.1%
Cn1nnnc1SCC(=O)NC1CCCCC1	8.9%
Cc1ccc(OCc2ccc(C(=O)Nc3nccs3)o2)cc1	-14.0%
COc1cccc(C2C(C(=O)Nc3ccc(C)cc3C)=C(C)Nc3ncnn32)c1OC (stereo not drawn)	10.2%
CCOC(=O)c1ccc(NC(=O)CSc2nc3c(c(=O)n2-c2ccccc2OC)SCC3)cc1	-7.3%
COc1ccc2c(c1OC)OCC(c1ccc(OC)c(OC)c1OC)C2 (stereo not drawn)	-9.0%
CCCN1C(=O)C(NC(=O)c2ccncc2)(C(F)(F)F)C2=C1CC(C)(C)CC2=O (stereo not drawn)	-9.5%
COc1c(O)ccc2c1CN1CCc3cc4c(cc3[C@@H]1C2)OCO4	?
O=C(c1cccc(F)c1)N1CCC2(CC1)CCN(C(c1ccccc1)c1ccccc1)CC2	-4.1%
CCOC(=O)N1CCC2(CC1)CC(=O)c1cc(O)ccc1O2	-3.6%
CN(C)c1ccnc(SCc2ccccc2Cl)c1C#N	-25.3%
Cc1oc(-c2ccccc2F)nc1CS(=O)CC(=O)NCc1cccs1 (stereo not drawn)	-11.5%
Cc1onc(-c2c(F)cccc2Cl)c1C(=O)NCc1cccs1	6.5%
Cc1ccc(Cn2c(N3CCCCCC3)nc3c2c(=O)[nH]c(=O)n3C)cc1	-6.0%
Cc1nc2ccc3nc(NC(=O)c4ccc5c(c4)OCCO5)sc3c2s1	?
Cc1cc(Cl)ccc1OCC(=O)N1CC(C)CC(C)C1 (stereo not drawn)	-4.8%
Cc1nc2ccc(C(=O)N3CCSCC3)cc2s1	-4.2%
Cc1c(NC(=O)NCc2ccccc2)c(=O)n(-c2ccccc2)n1C	10.6%
CC(C)c1ccc2c(c1)c(SC(C)(C)C)c(CC(C)(C)C(=O)O)n2Cc1ccc(Cl)cc1	3.98µM*
CN[C@@H]1NC(=O)c2ccccc2N1Cc1ccc(F)cc1	4.9%[11.4 µM]
Cc1noc(C)c1S(=O)(=O)N1CCCC(C(=O)N2CCc3ccccc3C2)C1 (stereo not drawn)	10.7%
CN(C)c1ccc(Nc2nc(-c3cccnc3)cs2)cc1	-13.0%
O=C(O)c1ccc(CSc2nnc(-c3ccco3)o2)cc1	-2.3%
c1cn(CC2(Cn3ccnc3)COC2)cn1	8.1%
CCOC(=O)C1[C@H]2C(=O)N(CCCOC)C[C@]23C=C[C@H]1O3 (stereo partly drawn)	1.5%
CCCCOC(=O)Nc1nc(C)c(C(=O)OCC)s1	2.8%
O=C(/C(=N\O)n1cncn1)c1ccc(Br)cc1Br	-1.1%
COc1ccc(CCNC[C@H](O)c2ccc(O)cc2)cc1OC	-4.3%
CC(/C(O)=C(\C#N)c1nc2ccccc2n1C)N1C(=O)c2ccccc2C1=O (stereo not drawn)	7.2%
Cc1ccc(C)n1CCN1CCN(C(=O)c2ccco2)CC1	9.2%
CCOC(=O)N1CCN(C(=O)c2cc(C)no2)CC1	4.2%
O=C1CC(N2CCN(c3ccccc3F)CC2)C(=O)N1c1ccc2c(c1)OCCO2 (stereo not drawn)	2.3%
CCCc1nc2ccccc2c(=O)n1-c1c(C)n(C)n(-c2ccccc2)c1=O	1.6%
O=C1c2ccccc2C(=O)N1CCSc1nnc(-c2ccco2)n1Cc1ccccc1	?
N#CNC(N)=Nc1ccc(Cl)cc1	8.9%[11.4 µM]
CC(CC(=O)O)(CC(=O)O)c1ccccc1	-0.1%[11.4 µM]
CC(C)(C)c1[nH]nc2c1C(c1ccccc1OC(=O)N1CCOCC1)C(C#N)=C(N)O2 (stereo not drawn)	-16.0%
Cc1nn(C)c(C)c1S(=O)(=O)N1CCCC(C(=O)NC2CCCCCC2)C1 (stereo not drawn)	9.0%
CCSc1nnc(NC(=O)c2cccc(OCc3c(C)noc3C)c2)s1	-7.7%
Cc1cc(S(=O)(=O)Nc2cccnc2)c(C)s1	-3.2%
COc1ccc(S(=O)(=O)NC2CC(C)(C)NC(C)(C)C2)c(C)c1C	10.8%
COc1ccccc1N1CCN(CC(O)COc2ccc(S(=O)(=O)N3CCOCC3)cc2)CC1 (stereo not drawn)	-14.0%
Cc1oc(-c2ccccc2F)nc1CS(=O)(=O)CC(=O)NCCCc1ccccc1	1.1%
CCc1c(C)nc(N)n2c(SCC(=O)N3CCN(c4ccccc4)CC3)nnc12	13.4%
COc1cccc(C2C(C(=O)NCc3ccccc3)=C(C)Nc3ncnn32)c1 (stereo not drawn)	7.2%
CC(=O)N1CCN(c2cccc(C)c2C)CC1	3.9%
COc1ccc(OC(C)C(=O)N2CCc3ccccc3C2)cc1 (stereo not drawn)	9.8%
Cc1cc(NC(=O)Cn2cc(C(F)(F)F)cc(Cl)c2=O)no1	7.1%
COC(=O)c1ccc(OC(=O)c2ccc(OCc3c(C)noc3C)c(OC)c2)cc1	-3.9%
CCP(=O)(c1ccccc1)C(C)(C)O (stereo not drawn)	-0.3%
COc1ccc(OC)c(S(=O)(=O)N2CCC(C(=O)Nc3cccc(C)c3C)CC2)c1	6.2%
CCNC(=O)CC1C(=O)N(c2cccc(OC)c2)C(=O)N1CCOC (stereo not drawn)	?
Cc1csc(SCC(=O)Nc2ccc(Cl)cn2)n1	7.3%
O=C(O)NCC1CCCCC1 (tested in a mixture with another compound)	10.0%[11.4 µM]
CSc1nccn1CC(=O)Nc1ccc(F)cc1	-4.0%
COC(=O)C/C=C\[C@@H](C)[C@@H]1C=C[C@H](OC(C)=O)[C@H](COC(C)=O)O1	-0.1%[11.4 µM]
CCCCC(=O)NCCc1cc2c(OC)ccc(OC)c2[nH]c1=O	-18.2%
CCOc1ccc(S(=O)(=O)N2CCN(c3ccc(C)cc3C)CC2)cc1	-2.4%
More records follow:
SMILES	HSD17B inhib
CC1(C)OC(=O)C(=CNCC(=O)NCC(=O)O)C(=O)O1	5.9%
CC(=O)c1ccc2c(c1)N(CCCN1CCC(CCO)CC1)c1ccccc1S2	0.6%[25.6 µM]
Cc1cccc2sc(NC(=O)CCNS(=O)(=O)c3cccc4nonc34)nc12	-1.0%
Oc1ccccc1C1=Nc2ncnn2C(c2ccc(F)cc2)C1 (stereo not drawn)	?
CC1SC(c2cccc(Cl)c2)NC1=O (stereo not drawn)	0.2%
CC(=O)N[C@@H](CC(=O)O)C(=O)O	1.9%[25.6 µM]
CCCCOc1ccccc1NC(=O)CC1SC(=NCC)N(CC)C1=O (stereo not drawn)	73.8%[activator]
O=C(Cn1nnc2c(cnn2-c2ccc(F)cc2)c1=O)OC1CCCCC1	?
CCOC(=O)c1[nH]c2ccccc2c1NC(=O)CN1CCCCC1	-24.6%
C/C=C/c1ccc(OCCn2cncn2)c(OC)c1	-2.0%
CC(C)[C@@H](C(=O)NCC1CCC(C(=O)O)CC1)n1nnc2ccccc2c1=O (stereo partly drawn)	5.8%
COc1ccc(-n2nc(C(=O)NCc3ccco3)c3c4ccccc4n(C)c3c2=O)cc1Cl	12.6µM*
COc1ccc(Oc2nc(Oc3ccc(OC)cc3)nc(Oc3ccc(OC)cc3)n2)cc1	11.8%
COc1ccc(OC)c(NC(=O)c2nnn(Cc3ccc(Br)cc3F)c2N)c1	?
COC(=O)[C@@]1(Cc2ccc(F)cc2)[C@H]2c3cc(C(=O)N(C)C)n(C)c3C[C@H]2CN1C(=O)c1ccccc1	-20.3%
C=CCn1c(=N)n(CC(O)c2ccco2)c2ccccc21 (stereo not drawn)	-7.6%
Cn1ncc(Br)c1C(=O)Nc1ccc(Cl)cn1	9.1%
CCOc1ccc(NC(=O)C(CC)NC(=O)c2ccccc2CO)cc1 (stereo not drawn)	-3.3%
CCn1c(SCC(=O)Nc2nc3ccc(C)cc3s2)nc2c(c1=O)SC(C)C2 (stereo not drawn)	3.1%
CN(C)c1ncnc2ccc(-c3cccnc3)cc12	-6.5%
CCOc1cc(N2CCOCC2)c(OCC)cc1NC(=O)CSc1cccc[n+]1[O-]	-24.2%
CC(=O)c1c(C)n(C)c2ccc(OC(=O)c3ccco3)cc12	-4.0%
CO[C@]1(NC(=O)C(C(=O)O)c2ccc(O)cc2)C(=O)N2C(C(=O)O)=C(CSc3nnnn3C)COC21 (stereo partly drawn)	6.2%
O=S(=O)(NCC1CCCO1)c1cccc(C(F)(F)F)c1 (stereo not drawn)	0.7%
COc1cccc(NC(=O)Nc2cc(C)ccc2F)c1	1.6%
CCOCCn1c(CN2CCN(c3ccccc3)CC2)nc2c1c(=O)n(C)c(=O)n2C	4.5%
N#CCCC12CCCCC1=Nc1ccccc12 (stereo not drawn)	7.6%
O=C(CN1C(=O)CCC1=O)Nc1nc(-c2ccc(Cl)s2)cs1	7.9%
Cc1ccc(N2CCN(CCc3nc4cc(NC(=O)c5ccco5)ccc4n3C)CC2)cc1	0.3%
COC(=O)[C@@H]1C[C@H]1[C@@H](NC(=O)c1cccnc1)c1ccccc1	-5.6%
COc1cccc([C@@H]2Oc3ccc(Br)cc3C(=O)[C@H]2O)c1	3.0%[11.4 µM]
Cc1cc(C(=O)CSc2nnc(Nc3ccccc3F)s2)c(C)n1CC1CCCO1 (stereo not drawn)	-9.9%
O=C(CSc1nnc(-c2ccc(F)cc2)o1)N1CCN(C(=O)c2ccco2)CC1	-2.5%
CCOC(=O)c1ccc(OCC(=O)c2ccc(O)cc2O)cc1	-19.3%
Cc1[nH]c2ccccc2c1C(=O)COC(=O)C1CCC(=O)N1 (stereo not drawn)	-4.7%
Cn1cnnc1Sc1nc2ccccc2nc1NS(=O)(=O)c1ccccc1	?
CN(Cc1ccco1)c1ncnc2ccc(-c3cccnc3)cc12	25.1µM*
O=C(NCc1ccc2c(c1)OCO2)c1cccc(S(=O)(=O)N2CCCCC2)c1	7.8%
CN(C(=O)c1ccc2c(c1)OCO2)C1(C(=O)NC2CCCCC2)CCCCC1	2.8%
COc1cc(C(=O)N2CCN(c3cccc(C)c3C)CC2)cc(OC)c1OC	3.4%
COc1ccc(Cc2nc(-c3ccc(Cl)cc3)no2)cc1	-1.5%
CCOC(=O)CCNC(=O)Nc1ccc2nc(C)n(Cc3ccc(Cl)cc3)c(=O)c2c1	31.6µM*
COc1cc(C(=O)O)cc(Br)c1OC1CCCC1	7.4%
Cc1nn(C(C)C(=O)N2CCc3ccccc3C2)c(=O)c2cc3occc3n12 (stereo not drawn)	-12.0%
NC(=O)c1cccc(S(=O)(=O)N2CCCCC2)c1	-3.2%

Arranged by count of non-hydrogen atoms (falling): part of the list above.
SMILES	HSD17B inhib
NC(=O)c1ccc[n+]([C@@H]2OC(COP(=O)([O-])OP(=O)(O)OCC3OC(n4cnc5c(N)ncnc54)C(OP(=O)(O)O)C3O)C(O)C2O)c1 (stereo partly drawn)	-10.7%
CCCN1C(=O)C(NC(=O)c2ccncc2)(C(F)(F)F)C2=C1CC(C)(C)CC2=O (stereo not drawn)	-9.5%
Cc1ccc(Cn2c(N3CCCCCC3)nc3c2c(=O)[nH]c(=O)n3C)cc1	-6.0%
CCOc1ccc(S(=O)(=O)N2CCN(c3ccc(C)cc3C)CC2)cc1	-2.4%
Cc1[nH]c2ccccc2c1C(=O)COC(=O)C1CCC(=O)N1 (stereo not drawn)	-4.7%
CCc1ccc(C=NC23CN4CN(CN(C4)C2)C3)s1	2.0%
O=C(O)NCC1CCCCC1 (tested in a mixture with another compound)	10.0%[11.4 µM]

These rows are one share of the data; count on the stated rates, not on these rows.
